Compound activity as filed in PubChem.
Vaccinia stage: blocks a specific stage of Vaccinia orthopoxvirus infection | Vaccinia-infected cells, mCherry/Venus stage reporter fluorescence; hits give low values; some inactives read as strong as hits | 89,000 compounds, 0.01% hits | AID 1053133 | activity change (mCherry), % (test concentration not listed);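 active = mCherry past -33% and 40 or more points under the early reporter, replicates agreeing; inconclusive = past -33% without that gap or agreement; tested in A549 cells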;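 note: scaled between vehicle wells and reference inhibitor wells; 23 nL library stock went into each well; one replicate is shown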
Vaccinia stage Venus: further read-out of Vaccinia stage, marked with its call; activity change (Venus), %; measured here: Venus reporter, other viral stage;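 negative = less Venus signal; first of two replicates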
* marks the source's active call; other numbers are inactive results; u = inconclusive; x = not tested or not shown. Not all compounds are listed; count on the stated rates, not on these rows.

Value order – Vaccinia stage | Vaccinia stage Venus
1. Cc1ccc(S(=O)(=O)Nc2ccc3c(c2)C(=O)N([C@@H](C)CO)C[C@@H](C)[C@@H](CN(C)S(=O)(=O)c2ccc(F)cc2)OCCCC[C@H](C)O3)cc1
    -3 | -9
2. O=C(C1CCC1)N1C[C@@H]2[C@H](c3ccccc31)[C@H](CO)N2C(=O)Nc1cccc(F)c1
    -5 | 12
3. COc1ccc(S(=O)(=O)N2CCCCN3[C@@H](CO)[C@@H](c4ccc(C5=CCCC5)cc4)[C@@H]3C2)cc1
    u | x
4. Cc1ccc(S(=O)(=O)N(C)C[C@@H]2Oc3ccc(NS(=O)(=O)c4ccc(Cl)cc4)cc3CC(=O)N([C@@H](C)CO)C[C@H]2C)cc1
    -34 | -24
5. CCCNC(=O)C[C@@H]1CC[C@@H]2[C@@H](COc3ccc(NC(=O)c4cccc(OC)c4)cc3C(=O)N2C)O1
    7 | 8
6. CCCNC(=O)C[C@@H]1CC[C@H]2[C@@H](COC[C@@H](O)CN2C(=O)Nc2ccc3c(c2)OCO3)O1
    10 | 10
7. C[C@H](CO)N1C[C@H](C)[C@H](CN(C)Cc2ccc(-c3ccccc3)cc2)Oc2ccc(NC(=O)CCC(F)(F)F)cc2C1=O
    -27 | -19
8. CC(C)C#Cc1ccc([C@@H]2[C@H]3CN(CC4CC4)CCCCN3[C@H]2CO)cc1
    1 | 2
9. Cc1ccc(S(=O)(=O)N(C)C[C@H]2OCCCC[C@@H](C)Oc3ccc(NC(=O)NC4CCCCC4)cc3C(=O)N([C@@H](C)CO)C[C@H]2C)cc1
    -33 | -20
10. COCC(=O)N1C[C@H](C)[C@@H](OC)CN(C)C(=O)c2cc(NC(=O)c3ccccc3)ccc2OC[C@H]1C
    39 | 25
11. COc1ccccc1CN1[C@@H](CO)[C@@H]2c3ccccc3N(C(=O)c3cccnc3)C[C@@H]21
    0 | 1
12. COc1ccc(CN(C)C[C@H]2Oc3ccc(NC(=O)Nc4ccc(F)cc4)cc3C(=O)N([C@@H](C)CO)C[C@@H]2C)cc1
    30 | 20
13. CN(C)CC(=O)N[C@@H]1CC[C@H](CC(=O)O)O[C@H]1CO
    16 | 20
14. O=C(Nc1ccccc1)C1=C[C@H](c2ccc(C(F)(F)F)cc2)C[C@H](OCc2ccc(CO)cc2)O1
    -7 | -1
15. CCCNC(=O)N(C)C[C@@H]1Oc2ncc(C3=CCCCC3)cc2C(=O)N([C@@H](C)CO)C[C@@H]1C
    4 | 6
16. COc1ccc(NC(=O)N(C)C[C@@H]2Oc3ccc(NC(=O)CCCCCC(=O)Nc4ccccc4N)cc3C(=O)N([C@H](C)CO)C[C@H]2C)cc1
    10 | 4
17. CCC(=O)N(C)C[C@@H]1Oc2ncc(-c3ccccc3OC)cc2C(=O)N([C@@H](C)CO)C[C@H]1C
    13 | 11
18. C[C@H](CO)N1C[C@H](C)[C@H](CN(C)C(=O)Nc2ccccc2F)Oc2ncc(C#CCN(C)C)cc2C1=O
    1 | 3
19. CCC(=O)Nc1ccc2c(c1)C(=O)N(C)C[C@@H](OC)[C@@H](C)CN(C(=O)CC)[C@H](C)CO2
    -2 | -6
20. C[C@@H]1CN([C@@H](C)CO)C(=O)c2cccc(NC(=O)c3ccncc3)c2O[C@@H]1CN(C)S(=O)(=O)c1ccc(Cl)cc1
    3 | 3

Entries of single compounds, looked up by structure. Values in the order: Vaccinia stage, Vaccinia stage Venus
Shown for COc1ccc(CN(C)C[C@H]2Oc3ccc(NC(=O)Nc4ccc(F)cc4)cc3C(=O)N([C@@H](C)CO)C[C@@H]2C)cc1 → 30, 20
Shown for O=C(Nc1ccccc1)C1=C[C@H](c2ccc(C(F)(F)F)cc2)C[C@H](OCc2ccc(CO)cc2)O1 → -7, -1

New compounds follow
Value order – Vaccinia stage | Vaccinia stage Venus
21. COc1cccc(NC(=O)N2C[C@@H](O)COC[C@H]3O[C@H](CC(=O)NC4CCCC4)CC[C@@H]32)c1
    21 | 10
22. COc1ccc2c3c(n(C)c2c1)[C@@H](CO)N(Cc1ccncc1)CC31CN(C(=O)C2CC2)C1
    0 | 11
23. O=C([C@@H]1[C@@H](CO)[C@@H]2Cn3c(ccc(C4=CCCC4)c3=O)[C@@H]2N1Cc1nccs1)N1CCOCC1
    -5 | 9
24. Cc1noc(C)c1NC(=O)Nc1ccc2c(c1)C(=O)N(C)[C@@H]1CC[C@H](CC(=O)N[C@H]3CCN(Cc4ccccc4)C3)O[C@@H]1CO2
    5 | 1
25. COc1ccccc1C(=O)Nc1ccc2c(c1)C(=O)N(C)C[C@H](OC)[C@H](C)CN[C@H](C)CO2
    5 | 4
26. COc1ccccc1C(=O)N1C[C@@H]2[C@H](c3ccccc31)[C@@H](CO)N2C(=O)C1CCCCC1
    -8 | 5
27. C[C@@H]1CN([C@@H](C)CO)C(=O)Cc2cc(NC(=O)Nc3ccccc3)ccc2O[C@@H]1CN(C)Cc1ccc(-c2ccccc2)cc1
    u | x
28. CS(=O)(=O)Nc1ccc2c(c1)[C@@H]1C[C@H](CC(=O)NCc3cccc(F)c3)O[C@H](CO)[C@@H]1O2
    3 | 3
29. Cc1cccc(-c2ccc([C@@H]3[C@H]4CN(C(=O)NC5CCCCC5)CC(=O)N4[C@H]3CO)cc2)c1
    -17 | -27
30. C[C@H](CO)N1C[C@H](C)[C@@H](CN(C)S(=O)(=O)c2ccccc2)Oc2ncc(/C=C/c3ccccc3)cc2C1=O
    u | x

Down the list, from the results shown:
Vaccinia stage, nos. 15–25 → 4, 10, 13, 1, -2, 3, 21, 0, -5, 5, 5
Vaccinia stage Venus, nos. 15–25 → 6, 4, 11, 3, -6, 3, 10, 11, 9, 1, 4

Continued.
Value order – Vaccinia stage | Vaccinia stage Venus
31. COc1ccc(S(=O)(=O)N(C)C[C@@H]2Oc3ccc(NS(=O)(=O)c4cn(C)cn4)cc3CC(=O)N([C@H](C)CO)C[C@@H]2C)cc1
    14 | 11
32. CC(C)NC(=O)N(C)C[C@H]1Oc2cc(C#C[C@H](C)O)ccc2S(=O)(=O)N([C@@H](C)CO)C[C@@H]1C
    30 | 8
33. CCC(=O)Nc1ccc2c(c1)C(=O)N(C)C[C@@H](OC)[C@@H](C)CN(C(=O)C1CC1)[C@H](C)CO2
    -2 | -2
34. CC(=O)N(C)C[C@H]1Oc2ncc(-c3ccccc3C)cc2C(=O)N([C@@H](C)CO)C[C@H]1C
    11 | 0
35. CS(=O)(=O)N1CC(=O)N2[C@H](C1)[C@H](c1ccc(C#Cc3cccc(F)c3)cc1)[C@@H]2CO
    u | x
36. C[C@@H]1CN([C@H](C)CO)C(=O)c2cccc(NS(C)(=O)=O)c2O[C@H]1CN(C)Cc1ccc2c(c1)OCO2
    3 | 9
37. COCC(=O)N1CCCCN2[C@H](CO)[C@H](c3ccc(-c4ccccc4)cc3)[C@H]2C1
    21 | 15
38. C[C@H]1CN([C@@H](C)CO)C(=O)c2cccc(NC(=O)Nc3ccc(C(F)(F)F)cc3)c2O[C@@H]1CN(C)Cc1ccccc1
    -2 | -7
39. C[C@@H]1CN([C@@H](C)CO)C(=O)Cc2cc(NC(=O)Cc3ccccc3)ccc2O[C@@H]1CN(C)C
    8 | 3
40. O=C(C[C@H]1CC[C@@H]2[C@H](COC[C@H](O)CN2C(=O)Nc2ccc(F)cc2)O1)NCC1CC1
    2 | -14
41. O=C(c1cccnc1)N1CC[C@@H]2[C@H](CO)Nc3ccc(C#Cc4cccnc4)cc3[C@@H]21
    -4 | -4
42. C[C@H]1CN([C@@H](C)CO)C(=O)c2cc(NC(=O)NC3CCCCC3)ccc2O[C@@H]1CN(C)C
    1 | 1
43. COc1ccc(NC(=O)Nc2ccc3c(c2)C(=O)N([C@H](C)CO)C[C@H](C)[C@@H](CN(C)C(=O)Nc2ccccc2)O3)cc1
    8 | 15
44. C[C@H](CO)N1C[C@H](C)[C@@H](CN(C)Cc2ccc3c(c2)OCO3)Oc2ccc(NC(=O)Nc3ccc(F)cc3)cc2CC1=O
    -29 | -28
45. C[C@H](CO)N1C[C@H](C)[C@@H](CN(C)C(=O)NC2CCCCC2)OCCCC[C@H](C)Oc2ccc(NC(=O)c3ccncc3)cc2C1=O
    23 | 10
46. C[C@@H]1CCCCO[C@H](CN(C)S(=O)(=O)c2ccc(Cl)cc2)[C@@H](C)CN([C@H](C)CO)C(=O)c2cc(NC(=O)CCCCCC(=O)Nc3ccccc3N)ccc2O1
    16 | 1
47. C[C@@H]1CN([C@H](C)CO)C(=O)c2cc(C#CC3(O)CCCC3)cnc2O[C@@H]1CN(C)C(=O)C1CCC1
    28 | 32
48. CC(C)NC(=O)N(C)C[C@H]1OCCCC[C@H](C)Oc2ccc(NS(=O)(=O)c3cn(C)cn3)cc2C(=O)N([C@@H](C)CO)C[C@H]1C
    7 | 7
49. C[C@@H]1CN([C@@H](C)CO)C(=O)c2cc(NC(=O)Nc3ccccc3)ccc2O[C@H]1CN(C)C(=O)Nc1ccc(F)cc1
    8 | 0
50. COc1cccc(NC(=O)N(C)C[C@@H]2Oc3ncc(C#Cc4ccncc4)cc3C(=O)N([C@@H](C)CO)C[C@H]2C)c1
    2 | 2
51. CO[C@H]1CN(C)C(=O)c2ccc(NC(=O)C3CC3)cc2OC[C@H](C)N(C(=O)CN2CCOCC2)C[C@@H]1C
    -2 | 2
52. Cc1ccc(S(=O)(=O)N(C)C[C@H]2Oc3ccc(NC(=O)CCC(F)(F)F)cc3C(=O)N([C@H](C)CO)C[C@@H]2C)cc1
    -20 | -16
53. O=C(C[C@H]1CC[C@H](NS(=O)(=O)c2ccccc2)[C@H](CO)O1)NCc1ccccc1F
    0 | -2
54. CNC[C@H]1OCCCC[C@H](C)Oc2ccc(NS(=O)(=O)c3ccc(Cl)cc3)cc2C(=O)N([C@@H](C)CO)C[C@H]1C
    -15 | 4
55. CC(=O)Nc1ccc2c(c1)C(=O)N(C)[C@@H]1CC[C@@H](CC(=O)NCc3ccccc3)O[C@H]1CO2
    -5 | -4
56. COc1cccc(S(=O)(=O)Nc2ccc3c(c2)[C@H]2C[C@H](CC(=O)N(C)C)O[C@H](CO)[C@H]2O3)c1
    -3 | -5
57. COCC(=O)N1[C@@H](C#N)[C@@H](c2ccccc2)[C@@H]1CO
    15 | 2
58. COCC(=O)Nc1ccc2c(c1)OC[C@@H](C)N(Cc1cc(F)ccc1F)C[C@@H](C)[C@@H](OC)CN(C)C2=O
    -8 | -7
59. C[C@@H]1CN([C@@H](C)CO)C(=O)CCCn2cc(nn2)CO[C@@H]1CN(C)Cc1cccc2c1OCCCO2
    5 | 10
60. C[C@@H](NC(=O)C[C@@H]1CC[C@H]2[C@@H](COC[C@H](O)CN2C)O1)c1ccccc1
    14 | 11
61. CO[C@@H]1CN(C)C(=O)c2cc(NC(=O)C3CC3)ccc2OC[C@@H](C)N(C(=O)Cc2ccccn2)C[C@@H]1C
    3 | -4
62. COCC#Cc1ccc2c(c1)O[C@H](CN(C)Cc1ccc(F)cc1)[C@H](C)CN([C@H](C)CO)S2(=O)=O
    -34 | -24
63. C[C@@H]1CN([C@@H](C)CO)C(=O)Cc2cc(NC(=O)Nc3cccc4ccccc34)ccc2O[C@H]1CN(C)C(=O)Nc1cccc2ccccc12
    13 | 12
64. CCCN(C)C[C@@H]1Oc2cc(-c3cccnc3)ccc2S(=O)(=O)N([C@@H](C)CO)C[C@@H]1C
    10 | 5
65. C[C@@H]1CCCCO[C@H](CN(C)S(=O)(=O)c2cn(C)cn2)[C@@H](C)CN([C@H](C)CO)C(=O)c2cc(NC(=O)Nc3ccc(F)cc3)ccc2O1
    20 | 10
66. C[C@@H]1CN([C@H](C)CO)C(=O)CCCn2nncc2CO[C@@H]1CN(C)C(=O)CCCN(C)C
    3 | -1
67. C[C@H]1CN([C@@H](C)CO)C(=O)c2cccc(NS(=O)(=O)c3ccc(Cl)cc3)c2O[C@@H]1CN(C)C
    21 | 10
68. C[C@@H]1CN([C@H](C)CO)C(=O)c2cc(NC(=O)c3ccncc3)ccc2O[C@@H](C)CCCCO[C@H]1CN(C)C(=O)Nc1ccc(F)cc1
    10 | -3
69. CCN1[C@H](C(=O)NCCc2ccccc2)[C@@H](CO)[C@@H]2Cn3c(ccc(C4=CCCC4)c3=O)[C@@H]21
    -9 | 1
70. C[C@H]1CN([C@@H](C)CO)C(=O)c2cccc(NC(=O)Nc3ccc(F)cc3)c2O[C@H]1CN(C)C(=O)Nc1cccc2ccccc12
    -24 | -19
71. Cc1noc(C)c1NC(=O)N(C)C[C@@H]1Oc2ccc(NC(=O)Cn3cnnn3)cc2C(=O)N([C@H](C)CO)C[C@@H]1C
    23 | 23
72. NC(=O)C1=C[C@H](c2ccc3c(c2)OCO3)C[C@H](OCc2ccc(CO)cc2)O1
    14 | 0
73. O=C(Cc1ccccn1)N[C@H]1CC[C@H](CC(=O)N2CCCCC2)O[C@@H]1CO
    -3 | -3
74. CNC[C@H]1Oc2ccc(NS(=O)(=O)c3cn(C)cn3)cc2CC(=O)N([C@@H](C)CO)C[C@H]1C
    24 | 26
75. CCCN(C)C[C@H]1Oc2ncc(-c3ccccc3OC)cc2C(=O)N([C@H](C)CO)C[C@H]1C
    -32 | -18
76. O=S(=O)(c1cccc(F)c1)N1CC[C@@H]2[C@@H](CO)Nc3ccc(C#Cc4ccccc4F)cc3[C@@H]21
    -13 | -14
77. COc1ccc(NC(=O)Nc2cccc3c2O[C@@H](CN(C)S(=O)(=O)c2cccs2)[C@@H](C)CN([C@H](C)CO)C3=O)cc1
    4 | 7

A different layout for 2 compounds above:
item | SMILES | Vaccinia stage | Vaccinia stage Venus
72 | NC(=O)C1=C[C@H](c2ccc3c(c2)OCO3)C[C@H](OCc2ccc(CO)cc2)O1 | 14 | 0
73 | O=C(Cc1ccccn1)N[C@H]1CC[C@H](CC(=O)N2CCCCC2)O[C@@H]1CO | -3 | -3
